# NPYLR7 agonist: agonists of mosquito NPYLR7 receptor, primary screen, cell-based, Aedes aegypti, calcium fluorescence, mosquito biting behavior; HEK293T NPYLR7/Galpha15, GCaMP6s calcium fluorescence; activation, % at 10 µM; hit rate 0.15% among 270,000; in the data active = activation above about 40%;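 also: 0% = vehicle and 100% = reference agonist at the receptor; some compounds past the cut are filed as inactive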
# NPYLR7 agonist max-min: second read-out of NPYLR7 agonist, no call of its own (marks repeat the call); activation, %; measured here: Max-Min RFU normalised activation; some inactives read as strong as hits;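 span of the calcium signal over five minutes; 0% = vehicle and 100% = native peptide agonist; compound fluorescence can raise it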
# The depositor's hits bear a star; & = joins results of further samples. These rows are one share of the data; rates above refer to the full screens.
SMILES	NPYLR7 agonist	NPYLR7 agonist max-min
Cc1ccccc1CSc1nnc(CNC(=O)Nc2ccccc2F)n1-c1ccc(Cl)cc1Cl	2.1	15.8
COc1ccc(-c2nc3cc(C)ccn3c2NC(=O)C(Cl)Cl)cc1OC	0.9	9.5
CCCOc1nn(CCC)cc1C(=O)Nc1cc(C)ccc1C	6.8	-2.8
COc1ccc(CC(=O)Nc2nnc(SCC3CC3)s2)cc1	13.5	16.7
Cc1nnc(SCc2csc(Cc3ccc(Cl)c(Cl)c3)n2)s1	10.0	19.4
CN(C)CC1(O)CCCN(C(=O)c2cnc(-c3cccnc3)nc2)C1 (stereo not given)	-1.8	-6.5
Fc1cc2c(c(CN3CCC(COc4ccccc4)CC3)c1)OCOC2	0.0	-2.3
CCOc1ccc(C2NC(=O)N(C)C3=C2C(=O)N(CCc2ccccn2)C3)cc1 (stereo not given)	0.6	5.1
Cc1cccn2c(=O)c(C(=O)NCc3ccc(F)cc3)c(O)nc12	-3.4	6.8
Cc1nc(Cl)cc(NC2(CO)CCC2)n1	24.7	19.0
Cc1nn(Cc2ccccc2)c(C)c1CNS(=O)(=O)c1cccc(F)c1	4.1	1.6
CC1(C)Cc2cccc3c2N(CCC3)C1=S	-6.9	-5.2
O=C(NCCC1=CCCCC1)c1ccc2nc(-c3ccncc3)[nH]c2c1	-1.3	-1.8
Oc1[nH]c2ccc(Br)cc2c1N=Nc1ccccc1F	-0.6	-8.0
Nc1nc(SCC(=O)Nc2ccc(F)cc2F)[nH]c(=O)c1NC(=O)c1ccc(F)cc1	-4.1	-8.7
Cc1noc(C)c1CSc1nc2sccc2c(=O)n1C	-2.3	-4.8
Cc1occc1COC(=O)C1CCCN(C(=O)c2ccncc2)C1 (stereo not given)	5.4	10.4
O=C(Cc1cccnc1)N1CCOC(CCCc2ccccc2)C1 (stereo not given)	8.5	6.7
CC(C(=O)Nc1ccc(NC(=O)c2ccc3c(c2)CCC3)cc1)n1cncn1 (stereo not given)	0.3	-0.4
Cc1ccn2c(NCc3ccccc3)c(-c3ccccc3OC(=O)COc3ccc(Cl)cc3)nc2c1	-3.8	9.5
Cc1cc(C)n(CCN(C)C(=O)c2cn(CC3CCCO3)nn2)n1 (stereo not given)	10.4	5.2
COc1ccc(CC(=O)Nc2ccc(Nc3cc(-n4ccnc4)ncn3)cc2)cc1	-16.3	-21.3
CCc1nc(CC)n(Cc2cc(Br)ccc2F)n1	-0.4	1.7
COc1cccc(C=C(C#N)S(=O)(=O)c2ccc(Cl)cc2)c1	-0.1	5.7
CC(C)(C)OC(=O)NCCCCCC(=O)NC(c1ccc(S(C)(=O)=O)cc1)c1ccc2c(c1)CCO2 (stereo not given)	-9.8	-13.2
CC1CCCN(S(=O)(=O)N2CCCCC2C(C)NC(=O)OC(C)(C)C)C1 (stereo not given)	1.5	-1.4
CCC(CCNC(=O)NCc1ccc(C)nc1OC)N1CCCC1=O (stereo not given)	3.1	-0.5
CC(C)(C)c1cc(NC(=O)c2ccccc2C(F)(F)F)n(-c2ccccc2)n1	26.3	26.7
CCOC(=O)N1CCN(CC(=O)Nc2ccc(OC)c(S(=O)(=O)N(C)C)c2)CC1	7.9	8.0
O=C(O)Cc1cc(I)c(Oc2ccc(O)c(I)c2)c(I)c1	-0.2	-5.2
CCCCN1CCC(COC(=O)c2cc(Cl)c(N)c3c2OCCO3)CC1	-1.9	-26.4
CN(CC(C)(C)C)S(=O)(=O)CCC1CCCO1 (stereo not given)	-3.3	-4.9
O=[N+]([O-])c1cc2c(cc1C=NNc1ccc(C(F)(F)F)cc1[N+](=O)[O-])OCO2	2.1	1.9
COc1ccc(-c2[nH]ncc2CN(C)Cc2cc(C)no2)c(OC)c1	11.5	5.6
N#Cc1cc(S(N)(=O)=O)ccc1N1CCCCC(N2CCCC2)C1 (stereo not given)	-7.8&12.0	-8.6&5.8
CCc1nc(CN2CCC(c3ccnc(-c4cccc(O)c4)c3)C2)c(C)[nH]1 (stereo not given)	5.3	2.7
O=C(c1cc(Cl)cc(Cl)c1)N1CCC(Cc2ccc(-n3cccc3)cc2)CC1	1.3	13.6
CCOc1ncccc1-c1ncccc1C(=O)N1CCCC1	9.0	5.3
C=CCc1c(C)nc2c(-c3ccccc3)cnn2c1NCCN(C)C	1.3	1.0
O=C(C1CCCC1)N(Cc1nccn1Cc1ccc(Cl)cc1Cl)C1CC1	10.7	13.3
CCNC(=O)NC(Cc1ccccc1)C(=O)Nc1nnc(-c2cccc(OC)c2)s1 (stereo not given)	-0.3	-6.0
COc1ccccc1CCNC(=O)CN1CN(c2ccccc2)C2(CCN(C(=O)Nc3ccc(C)c(C)c3)CC2)C1=O	33.6	32.7
O=C(CSc1nnc(-c2cccs2)o1)NCCN1C(=O)CSC1=O	2.0	7.8
Cc1cc(C(=O)Nc2nc(C)c(C)s2)sc1C	0.5	-1.4
CC1CC(NC(=O)c2cncn2-c2ccc(-c3cc(C(F)(F)F)cc(C(F)(F)F)c3)cc2)CC(C)(C)C1 (stereo not given)	5.0	0.2
Cc1nc2nc3c(cn2n1)C(=O)CC(c1ccccc1)C3 (stereo not given)	12.5	3.1
CCCC(NC(=O)N1CCN(S(=O)(=O)N(CC)CC)CC1)c1ccccc1 (stereo not given)	2.6	0.5
CN1CCCc2cc(C(CNC(=O)NC(C)(C)C)N3CCCC3)ccc21 (stereo not given)	-7.5	-12.2
CC1CCN(C(=O)c2ccc(S(C)(=O)=O)cc2)c2ccccc2N1 (stereo not given)	-1.6	-2.4
O=C(O)C1(O)C[C@@H](O)C(O)[C@H](O)C1 (stereo not given in full)	-15.4	-18.7

# Reprinted from above, 26 compounds:
SMILES	NPYLR7 agonist	NPYLR7 agonist max-min
CC(C)(C)OC(=O)NCCCCCC(=O)NC(c1ccc(S(C)(=O)=O)cc1)c1ccc2c(c1)CCO2 (stereo not given)	-9.8	-13.2
CC1CCCN(S(=O)(=O)N2CCCCC2C(C)NC(=O)OC(C)(C)C)C1 (stereo not given)	1.5	-1.4
CCC(CCNC(=O)NCc1ccc(C)nc1OC)N1CCCC1=O (stereo not given)	3.1	-0.5
CC(C)(C)c1cc(NC(=O)c2ccccc2C(F)(F)F)n(-c2ccccc2)n1	26.3	26.7
CCOC(=O)N1CCN(CC(=O)Nc2ccc(OC)c(S(=O)(=O)N(C)C)c2)CC1	7.9	8.0
O=C(O)Cc1cc(I)c(Oc2ccc(O)c(I)c2)c(I)c1	-0.2	-5.2
CCCCN1CCC(COC(=O)c2cc(Cl)c(N)c3c2OCCO3)CC1	-1.9	-26.4
CN(CC(C)(C)C)S(=O)(=O)CCC1CCCO1 (stereo not given)	-3.3	-4.9
O=[N+]([O-])c1cc2c(cc1C=NNc1ccc(C(F)(F)F)cc1[N+](=O)[O-])OCO2	2.1	1.9
COc1ccc(-c2[nH]ncc2CN(C)Cc2cc(C)no2)c(OC)c1	11.5	5.6
N#Cc1cc(S(N)(=O)=O)ccc1N1CCCCC(N2CCCC2)C1 (stereo not given)	-7.8&12.0	-8.6&5.8
CCc1nc(CN2CCC(c3ccnc(-c4cccc(O)c4)c3)C2)c(C)[nH]1 (stereo not given)	5.3	2.7
O=C(c1cc(Cl)cc(Cl)c1)N1CCC(Cc2ccc(-n3cccc3)cc2)CC1	1.3	13.6
CCOc1ncccc1-c1ncccc1C(=O)N1CCCC1	9.0	5.3
C=CCc1c(C)nc2c(-c3ccccc3)cnn2c1NCCN(C)C	1.3	1.0
O=C(C1CCCC1)N(Cc1nccn1Cc1ccc(Cl)cc1Cl)C1CC1	10.7	13.3
CCNC(=O)NC(Cc1ccccc1)C(=O)Nc1nnc(-c2cccc(OC)c2)s1 (stereo not given)	-0.3	-6.0
COc1ccccc1CCNC(=O)CN1CN(c2ccccc2)C2(CCN(C(=O)Nc3ccc(C)c(C)c3)CC2)C1=O	33.6	32.7
O=C(CSc1nnc(-c2cccs2)o1)NCCN1C(=O)CSC1=O	2.0	7.8
Cc1cc(C(=O)Nc2nc(C)c(C)s2)sc1C	0.5	-1.4
CC1CC(NC(=O)c2cncn2-c2ccc(-c3cc(C(F)(F)F)cc(C(F)(F)F)c3)cc2)CC(C)(C)C1 (stereo not given)	5.0	0.2
Cc1nc2nc3c(cn2n1)C(=O)CC(c1ccccc1)C3 (stereo not given)	12.5	3.1
CCCC(NC(=O)N1CCN(S(=O)(=O)N(CC)CC)CC1)c1ccccc1 (stereo not given)	2.6	0.5
CN1CCCc2cc(C(CNC(=O)NC(C)(C)C)N3CCCC3)ccc21 (stereo not given)	-7.5	-12.2
CC1CCN(C(=O)c2ccc(S(C)(=O)=O)cc2)c2ccccc2N1 (stereo not given)	-1.6	-2.4
O=C(O)C1(O)C[C@@H](O)C(O)[C@H](O)C1 (stereo not given in full)	-15.4	-18.7

# Individual results from the results shown:
# In NPYLR7 agonist max-min, `Cc1noc(C)c1CSc1nc2sccc2c(=O)n1C` is listed with -4.8
# In NPYLR7 agonist, `O=C(O)Cc1cc(I)c(Oc2ccc(O)c(I)c2)c(I)c1` is listed with -0.2

# (next part)
SMILES	NPYLR7 agonist	NPYLR7 agonist max-min
Cn1cc(CN2CCOc3c(O)cc(-c4csc5ccccc45)cc3C2)cn1	-4.7	-6.8
COCCNCc1cn(-c2ccccc2)nc1-c1ccc(OC)cc1	-0.2	10.7
C=CCn1c(SCC(=O)c2cc(C)n(C3CC3)c2C)nnc1-c1ccoc1C	3.0	7.0
N#Cc1ccc(NCCNCC(=O)N2CCC[C@H]2C#N)nc1	-10.3	-19.0
O=C(CCc1c[nH]c2ccccc12)N1CCOC(COc2cccc(C(F)(F)F)c2)C1 (stereo not given)	25.3	32.6
O=C(Cn1cnc([N+](=O)[O-])n1)N/N=C/c1c2ccccc2cc2ccccc12	-8.5	-15.3
O=c1c2ccccc2ncn1Cc1csc(-c2cccs2)n1	0.8	-1.4
CN(C)S(=O)(=O)c1cccc(CN2CCN(c3cnccn3)CC2)c1	12.7	13.4
CCOC(=O)c1csc(CNC(=O)CCc2cccc(C)c2)n1	-0.5	-11.9
CCCN(CCc1c[nH]c2ccc(NC(=O)C3C[C@H]3c3ccccc3)cc12)CC1CC1 (stereo not given in full)	1.3	7.5
Cn1c(=O)c2c(ncn2CCN2C(=O)C3(CC(=O)N(Cc4ccccc4)C3=O)c3ccccc32)n(C)c1=O (stereo not given)	19.8	9.8
COc1cccc(-c2nc(C(=O)NC3CC3)cs2)c1OC	-1.2	-2.7
Oc1oc(-c2ccccc2F)nc1C=Nc1cccc(Cl)c1	0.2	-4.7
Cc1cc(F)ccc1NC(=O)CCC1CCCN(C(=O)C2=CCCC2)C1 (stereo not given)	5.0	1.4
CCCS(=O)(=O)N1CCN(c2ccc(NC(=O)c3ccccc3F)cn2)CC1	2.9	5.2
O=C(C1CCCN(Cc2nc(-c3cccc(Cl)c3)no2)C1)N1CCOCC1 (stereo not given)	3.2&4.4	-0.8&0.4
CC(C)(S)C(N)C(=O)O (stereo not given)	-5.5&-5.8&3.2	-0.2&-12.5&-2.9
CC(C)c1ccccc1NCc1nnnn1-c1ccc(S(C)(=O)=O)cc1	10.1	8.8
Cc1ccccc1C1CC(c2ccc(Cl)cc2)=Nc2ncnn21 (stereo not given)	3.4	2.1
Cn1c(=O)n(C)c2cc(CNC34CC5CC(CC(O)(C5)C3)C4)ccc21	0.8	-1.3
CC(C)c1ccc(N2CC(C(=O)N3CCC4(CCCO4)CC3)CC2=O)cc1 (stereo not given)	7.0	4.9
CCN(CCn1cccn1)C(=O)c1cc(=O)c2ccccc2o1	8.7	6.3
COc1cccc2sc(N)nc12	-1.3	-4.3
O=C(O)c1ccc2c(c1)CCN2C(=O)c1cnn(-c2ccccc2)c1	-7.5	-5.9
Cn1cc(CN2CCCC(N3CCN(c4ccccc4F)CC3)C2)c(-c2ccccc2)n1 (stereo not given)	-8.3	-7.3
Cn1ccnc1SCCNc1nc2nonc2nc1N1CCCCC1	-3.9	-6.8
CCN(CC)C(=O)Oc1ccc2c(ccn2Cc2cc(C)cc(C)c2)c1NC(=O)c1cc(OC)c(OC)c(OC)c1	5.3	0.7
O=C(NC1CC1)c1cc2n(n1)CCN(C(=O)c1cc3sccc3[nH]1)C2	-2.5	-2.9
C=CCn1c(SCC(=O)c2cc3ccccc3o2)nc2sc(C)cc2c1=O	-3.9	-6.6
COc1ccc(-n2cc(CNCCn3cccn3)c(-c3ccccc3Cl)n2)cc1	8.6	8.8
CC1(Cc2cc(Cl)ccc2C(F)(F)F)C(=O)Nc2cc(-c3ccccc3Cl)ccc21 (stereo not given)	2.3	1.5
O=C(Cc1cccs1)N1CC(C(=O)N2CCOCC2)CC(c2ccccc2)C1 (stereo not given)	6.5	5.2
Cc1ccc(N2CCC(Nc3nccnc3C#N)CC2)nc1	5.9	0.7
Cc1cc(NC(=O)NC(c2ccc(F)cc2)C2CCCC2)no1 (stereo not given)	3.8	1.3
Cc1ccccc1-n1nc(C)c(-c2ccccc2)c1NC(=O)CN(CC(C)C)S(=O)(=O)c1ccc([N+](=O)[O-])cc1	-0.6	0.7
COc1ccccc1OCC(=O)NCC1CCCN(Cc2ccc(SC)cc2)C1 (stereo not given)	1.4	-0.7
N#Cc1c2c(c(O)[nH]c1=O)CCCC2	12.7	11.6
COC(=O)Cn1c(O)c(N=NC(=O)CNC(=O)c2ccc(C(C)(C)C)cc2)c2ccccc21	10.3	15.8
NC(=O)c1cnc2n1CCN(C(=O)CCN1CCCCO1)C2	2.8	0.4
COc1ccc([N+](=O)[O-])cc1N=Nc1c(C)[nH]n(-c2nc(-c3ccc(Br)cc3)cs2)c1=O	-11.8	-2.2
Cc1nn2c(NCCCN(C)C)cc(C(C)(C)C)nc2c1-c1ccccc1	-1.6	-5.2
CCC(C)NS(=O)(=O)c1ccc(Sc2cc(C)ccc2C)cc1 (stereo not given)	-3.5	-4.9

# Bioassay records from PubChem.
